Screens: PubChem, National Center for Advancing Translational Sciences (NCATS)
2A StopGo – lowers the luciferase signal of an FMDV 2A StopGo reporter; Potency, µM (series often up to 57.9 µM), inactives show at the highest dose signal change, negative = less light; human cells with a luciferase reporter of 2A StopGo recoding; control for the full effect not named in the record; AID 1159524; hit rate 1.2% among 410,000; active = well fitted falling curve with a large enough effect; inconclusive = small, poorly fitted or top-dose-only effect; inactive = no such curve, though single readings can be large or run the other way; tested in HEK293T cells; also: % is scaled to controls: 0 for no effect and ±100 for the full control effect; nearly all actives have a fitted effect of over 45% in size; luciferase light after 4 h
NS1 inh – inhibitors of influenza NS1 protein function. S. cerevisiae slowed by influenza A NS1, growth recovery by OD600. hit rate 0.4% among 270,000. Potency, µM (top dose mostly 46.1 µM), for inactives: top-dose activity, positive = more growth; also: actives are rising curves; nearly all actives have a fitted effect of over 50% in size
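Growth recovery, yeast-based: influenza A NS1 expressed in S. cerevisiae causes slow growth, and suppressors are detected by OD600. The parent strain without NS1 is used as positive control.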
Cruzain inh Det – blocks cruzain activity in presence of Triton detergent; P25779; purified cruzain, Z-FR-AMC fluorescence, 0.01% Triton; Potency, µM, inactives show max response, negative = inhibition, usual class: inhibitors; hit rate 0.43% among 200,000; AID 1478; active = well fitted curve in the direction sought with a large enough effect; inconclusive = small, poorly fitted or top-dose-only effect, or another doubt; inactive = no such curve, though single readings can be large; an effect the other way counts as inactive or inconclusive;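 also: plate controls were neutral wells for no effect and buffer without enzyme for full effect; nearly all actives have a fitted effect of over 40% in size; top concentration of the series not given in the record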
Target sequence (P25779 123-467 limits assumed): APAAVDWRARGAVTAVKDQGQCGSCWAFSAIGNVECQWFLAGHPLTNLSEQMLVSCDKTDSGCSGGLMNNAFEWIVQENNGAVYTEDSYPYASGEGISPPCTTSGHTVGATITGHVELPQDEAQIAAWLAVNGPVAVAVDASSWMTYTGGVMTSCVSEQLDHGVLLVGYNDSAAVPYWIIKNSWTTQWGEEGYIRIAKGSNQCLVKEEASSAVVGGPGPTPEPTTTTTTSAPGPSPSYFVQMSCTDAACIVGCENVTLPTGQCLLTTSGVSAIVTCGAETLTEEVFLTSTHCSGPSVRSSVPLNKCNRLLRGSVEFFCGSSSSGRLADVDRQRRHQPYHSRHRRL
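Detergent-containing arm of a paired screen for aggregation-based inhibition: 0.01% Triton X-100 present. Cruzain at 1.5 nM cleaved 2 uM Z-FR-AMC at pH 5.5 with 5 mM DTT; AMC fluorescence gain over 60 s measured activity.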
SARS PLpro yeast – inhibitors of SARS-CoV papain-like protease in yeast. S. cerevisiae expressing SARS-CoV PLpro, growth rescue; control for the full effect not named in the record. Potency, µM (series often up to 32.9 µM), inactives show top-dose activity, positive = growth rescue. hit rate 0.19% among 330,000; also: 0% is about no effect; nearly all actives have a fitted effect of over 55% in size; growth read by luminescence after 48 h
RE007 growth inh – less growth of the S. pombe RE007 Vpr strain. AID 651644. hit rate 0.21% among 360,000. S. pombe RE007 Vpr strain, BacTiter-Glo ATP luminescence, 24 h; control for the full effect not named in the record. Potency, µM (titrated, usually from 92.2 µM), for the others: top-dose activity change, negative = less growth; active = well fitted falling curve with a large enough effect; inconclusive = small, poorly fitted or top-dose-only effect; inactive = no such curve, though single readings can be large or run the other way;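 also: % is scaled to controls: 0 for no effect and ±100 for the full control effect; nearly all actives have a fitted effect of over 50% in size; the assay follows cell death caused by Vpr and the record does not say whether a fall means rescue or toxicity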
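Fission yeast strain RE007, carrying one chromosomally integrated HIV-1 vpr copy, was seeded at OD 0.01 in PMG+AL medium with 23 nL pinned compound. After 24 h at 30 °C and 99% humidity, viability was read by BacTiter-Glo luminescence.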
LASV entry inh – Lassa virus entry inhibition; Lassa virus pseudotype entry inhibition, cell reporter; control for the full effect not named in the record; Potency, µM (top dose mostly 37.9 µM), without a hit: at the highest dose activity change, negative = inhibition, usual class: inhibitors; hit rate 1.2% among 300,000; AID 540256; active means well fitted inhibition curve with a large enough effect; inconclusive means small, poorly fitted or top-dose-only effect, or effect the other way; inactive means flat fitted curve, though single readings scatter; tested in HEK293 cells; also: % is scaled to controls: 0 for no effect and ±100 for the full control effect; nearly all actives have a fitted effect of over 50% in size; luciferase read-out
Cruzain noTriton – cruzain (T. cruzi) inhibition without detergent. purified cruzain, Z-FR-AMC fluorescence, no detergent. hit rate 2.3% among 200,000. Potency, µM, without a hit: max response, negative = inhibition, actives largely listed as inhibitors. P25779; active = well fitted curve in the direction sought with a large enough effect; inconclusive = small, poorly fitted or top-dose-only effect, or another doubt; inactive = no such curve, though single readings can be large; an effect the other way counts as inactive or inconclusive;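 also: plate controls were enzyme without inhibitor for no effect and buffer without enzyme for full effect; nearly all actives have a fitted effect of over 40% in size; top concentration of the series not given in the record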
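Purified cruzain at 1.5 nM, pre-incubated 15 min with compound at room temperature in 100 mM sodium acetate pH 5.5, 5 mM DTT, 0.00005% Triton X-100. Reaction started with 2 uM Z-FR-AMC; AMC fluorescence increase over 60 s gives rate.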
Marburg entry inh – blocks Marburg virus binding to or entry into cells | Marburg virus pseudotyped entry inhibition, cell reporter; control for the full effect not named in the record; about a third of the inactives were read at about 46 µM | AID 540276 | hit rate 1.8% among 300,000 | Potency, µM (titrated, usually from 37.8 µM), inactives show at the highest dose activity change, negative = inhibition, actives largely listed as inhibitors; active = well fitted inhibition curve with a large enough effect; inconclusive = small, poorly fitted or top-dose-only effect, or effect the other way; inactive = flat fitted curve, though single readings scatter; tested in HEK293 cells; about a fifth of its hits are not listed in these tables; also: % is scaled to controls: 0 for no effect and ±100 for the full control effect; luciferase read-out
* hit, by the source's call; ? = inconclusive; / = not tested or not shown; & = joins results of further samples; [ ] = another dose, or the depositor's remark. Unless noted, calls follow the shape of the dose curve; as a rule, active means well fitted rising curve with a large enough effect; inconclusive means small, poorly fitted or top-dose-only effect; inactive means no such curve, though single readings can be large or run the other way. Potency is read from the fitted curve at half-maximal effect.

SMILES | 2A StopGo | NS1 inh | Cruzain inh Det | SARS PLpro yeast | RE007 growth inh | LASV entry inh | Cruzain noTriton | Marburg entry inh
COc1cc2c(cc1OC)C(C)N(C(=O)c1sc(-c3cnccn3)nc1C)CC2 (stereo unspecified) | 0.4% | 1.5% | / | 0.3% | -3.6% | 15.2% | / | 9.6%[46.1 µM]
Cc1ccc(S(=O)(=O)CC(CN2CCCCC2)N2CCCCC2)cc1 (stereo unspecified) | 28.2µM* | 8.5% | / | -0.8% | 0.9% | 14.9% | / | 10.3%[46.1 µM]
COCCCNC(=O)c1cc2cc([N+](=O)[O-])cc(OC)c2oc1=O | 53.8%[activator] | / | / | 3.7% | 0.5% | -7.3%[46.1 µM] | / | 8.1%[46.1 µM]
Cc1ccccc1OC(C)C(=O)Nc1ccc2c(c1)OCCO2 (stereo unspecified) | 35.4%[activator] | -47.3% | / | -2.2% | -17.8% | / | / | /
COC(=O)Nc1ccc(S(=O)(=O)N2CCCC(C(=O)Nc3cccc4c3OCCO4)C2)cc1 (stereo unspecified) | ? | -57.6% | 0.0% | -11.8% | 5.3% | -1.6% | 19.0% | -26.5%&-26.5%
O=C(NCC(=O)N1CCCC1)c1ccc(Br)o1 | -1.7% | -6.2% | / | 2.0% | 6.0% | 6.5% | / | ?
Cc1cccnc1CCNC(=O)c1ccc(OC2CCN(Cc3ccccn3)CC2)cc1 | ? | ? | / | 10.7% | -18.2% | -24.7% | / | ?
Cc1ccc(C)c(Cn2nnc(C(=O)Nc3ccc4c(c3)OCCO4)c2N)c1 | 10.0% | / | / | 0.9% | -16.7% | -1.1% | / | ?
COCCCNC(=O)c1ccc2c(c1)N(Cc1ccccc1F)C(=O)c1ccccc1S2=O (stereo unspecified) | -10.0% | / | 5.4% | / | / | -7.2%[46.1 µM] | ? | -14.7%[46.1 µM]
CC1CCCN(C(=O)COC(=O)CNS(=O)(=O)c2ccc3ccccc3c2)C1 (stereo unspecified) | -10.7% | / | / | 1.3% | 17.5% | 15.1% | / | -5.8%
CCN(CC)S(=O)(=O)c1ccc(NC(=S)Nc2ccc(F)cc2)cc1 | 38.3%[activator] | 7.1% | / | -0.4% | 9.0% | / | / | /
Cc1cc(C)cc(NC(=O)CSc2nc3ccccc3nc2N2CCCC2)c1 | -22.8% | 0.5% | / | -4.4% | 4.9% | / | / | /
C=CCNc1nc(Cl)nc(NC2CCCCC2)n1 | 15.8% | -1.4% | / | 0.4% | 31.5% | 6.4% | / | 2.1%
Fc1ccc(-c2nc(-c3cccs3)[nH]c2-c2ccc(F)cc2)cc1 | 28.2µM* | -2.5% | -6.2% | -91.7% | 3.3% | ? | ? | ?
N#C/C(=C(/O)COC(=O)c1cccnc1Cl)c1nc2ccccc2[nH]1 | 40.9%[activator] | 2.5% | / | -0.2% | 4.9% | 1.7% | / | -17.5%[46.1 µM]
O=C(Cn1cc(C(=O)C2CC2)c2ccccc21)NCc1ccccc1 | 47.6%[activator] | 14.4% | -1.5% | 8.1% | -0.4% | 24.1% | -14.9% | 22.2%
COc1nc(NC2CCCCC2)nc(NC(C)(C)C)n1 | 35.8%[activator] | / | / | / | 2.5% | ? | / | ?
CC(NCc1ccccc1Cl)C(O)c1ccccc1 (stereo unspecified) | / | -7.8% | 6.2% | 3.3% | -2.2% | ? | -15.7% | -7.8%
C=CCOC(=O)C1=C(C)NC(=S)NC1/C=C/c1ccccc1 (stereo unspecified) | ? | 2.9% | -6.5% | 3.9% | 7.6% | 6.9% | -8.3% | -13.1%
Cc1cc(Cl)ccc1OC(C)C(=O)Nc1cnn(CCCC(=O)O)c1 (stereo unspecified) | -5.9% | 7.2% | / | -2.4% | -4.9% | 7.5%[46.1 µM] | / | 24.1%[46.1 µM]
CC(=O)Nc1nonc1C(=O)N1CCC(C)CC1 | -5.0% | 6.0% | 0.0% | -8.4% | 0.0% | -15.4% | -0.6% | -6.2%
CN(C)c1ccc(/C=C(\C#N)C(=O)Nc2nc3c(s2)CCN(Cc2ccccc2)C3)cc1 | -22.9% | 3.0% | -6.1% | 2.2% | -13.6% | 3.5% | -10.2% | -20.4%
CC(=O)OCC(OC(C)=O)C(OC(C)=O)C(OC(C)=O)C(=O)Nc1cccc(C)c1 (stereo unspecified) | -1.7% | 1.8% | / | 4.8% | -5.5% | -21.6% | / | /
COc1cc2[nH]c(=O)n(CCC(=O)N3CCN(c4cc(Cl)ccc4C)CC3)c(=O)c2cc1OC | ? | 18.6% | -1.9% | -0.8% | -5.0% | -23.2% | ? | ?
COC(=O)CCCC1=CC2=CC(=O)C(C)(OC(=O)c3cccs3)C(=O)C2=CN1C1CCCC1 (stereo unspecified) | -18.0% | -2.1% | / | 4.8% | 1.1% | / | / | 43.8%&43.8%[14.2 µM]
Cc1ccc(S(=O)(=O)Nc2c(C(=O)O)[nH]c3ccccc23)cc1C | -11.0% | 9.5% | / | 4.2% | -3.1% | / | / | /
O=C(NCCNC(=O)c1ccccc1F)c1ccccn1 | 22.1% | 2.0% | / | 0.1% | -10.9% | -1.0%[46.1 µM] | / | 8.6%[46.1 µM]
CCOC(=O)Cc1csc(NC(=O)CSc2nnc(C(C)C)n2CC)n1 | -18.3% | 2.3% | -3.0% | 18.7% | 23.8% | 9.3% | -11.5% | -0.5%
CCCn1c(SCC(=O)Nc2ccccc2Oc2ccccc2)n[nH]c1=O | ? | 7.5% | -0.2% | 6.0% | -0.7% | -16.5% | -3.4% | -17.9%
CC1CCCc2sc3ncn(N)c(=N)c3c21 (stereo unspecified) | -3.6% | -2.8% | / | -3.3% | 0.1% | -7.7% | / | 8.9%[46.1 µM]
CCN1CCN(C(=O)c2ccc3c(c2)N(Cc2ccc(C)cc2)CCS3)CC1 | 27.4% | -6.7% | / | 3.5% | 0.6% | / | / | /
C=CCNc1oc(-c2ccc(OC)cc2)nc1C#N | -9.9% | -17.9% | -7.4% | -2.2% | 1.1% | ? | -13.4% | -20.5%
Cc1cc(C)nc(NC(=O)Cc2cccs2)n1 | -4.6% | -2.3% | 7.6% | 2.2% | -1.2% | 12.6% | -4.4% | 22.6%
COc1ccc([N+](=O)[O-])cc1N(CC(O)CN(CC(C)C)CC(C)C)S(=O)(=O)c1ccccc1 (stereo unspecified) | 2.7% | 1.3% | -6.1% | -2.3% | -13.3% | 4.7% | 5.4% | 11.6µM*
COc1ccc(Cn2c(-c3ccco3)nc3oc4cc(OC)ccc4c(=O)c3c2=O)cc1 | 27.3% | -11.9% | -1.1% | -1.7% | -1.0% | -2.0% | 15.2% | 3.9%
COc1ccc(-c2cccc(-c3cc(=O)oc4ccc(C(C)(C)C)cc34)c2)cc1 | ? | / | -0.3% | -4.5% | 1.0% | / | 35.5µM* | /
COc1cccc(-c2nc(CS(=O)(=O)CC(=O)NCCc3ccc(OC)cc3OC)c(C)o2)c1 | -15.1%&-20.5% | -8.2% | -4.9% | 1.0% | 18.4% | ? | -4.2% | ?
Cc1ccnc(SCC(=O)Nc2cccc(S(=O)(=O)N3CCOCC3)c2)n1 | 4.0% | / | / | 5.3% | 12.8% | -7.1%[46.1 µM] | / | ?
Cc1ccc(NS(=O)(=O)c2ccc(OCC(=O)NCC3CCCO3)cc2)cc1 (stereo unspecified) | 69.8%[activator] | -4.4% | / | 0.2% | 2.7% | -27.1% | / | 12.1%[46.1 µM]
OC(c1ccccn1)C1CCN(Cc2nc(C(c3ccccc3)c3ccccc3)no2)CC1 (stereo unspecified) | -28.6% | -9.5% | / | 0.7% | -2.1% | / | / | /
COc1cc(C(=O)NNC(=O)CNC(=O)c2ccc(Br)o2)cc(OC)c1OC | -10.1% | 12.0% | / | -3.2% | -10.8% | 9.8% | / | ?
CCc1ccc(-c2nc(CSCC(=O)NCc3ccc(C)cc3)c(C)o2)cc1 | -11.3% | / | -7.5% | / | / | 11.2%[46.1 µM] | 15.9% | 10.3%[46.1 µM]
CCc1ccccc1NC(=O)Nc1ccc(F)cc1 | 12.0% | -7.7% | / | -0.4% | -11.7% | ? | / | -23.9%[46.1 µM]
COc1ccc(Cl)cc1NC(=O)CN(C)C(=O)C1COc2ccccc2O1 (stereo unspecified) | -2.1% | / | / | -2.6% | -23.0% | -5.2% | / | -12.2%
COc1cc2c(cc1OC)C(C(=O)Nc1ccc(F)c(Cl)c1)CC(=O)N2 (stereo unspecified) | -20.6% | -2.7% | / | -3.2% | 1.5% | / | / | /
Cn1ncc(SCc2ccccc2)c(Cl)c1=O | ? | -0.1% | / | 0.7% | 15.3% | ? | / | ?
CCOc1ccccc1NC(=O)CNC(=O)c1nn(-c2ccc(OC)c(OC)c2)c(=O)c2ccccc12 | -23.1% | 2.0% | / | 0.4% | 9.7% | ? | / | ?
O=C(NCc1cccc(F)c1)c1ccc(N2C(=O)Cn3c(cc4sccc43)C2=O)cc1 | -10.1% | ? | -6.6% | 10.1% | 5.3% | -2.4% | 25.1µM* | 1.8%
CNC(=O)c1c(NC(=O)c2ccco2)sc(C)c1C | -12.6% | / | / | 13.8% | 3.3% | -3.6% | / | 8.1%
O=C(NCCCn1cccn1)C1CCC(=O)N(CCc2ccccc2)C1 (stereo unspecified) | 15.5% | -4.1% | / | -0.7% | 4.2% | / | / | /
CCOC(=O)N1CCN(Cc2c(F)cccc2Cl)CC1 | 3.1% | -11.8% | 8.7% | -7.9% | 0.2% | 17.3% | 6.7% | -4.1%

Some values from the entries so far.
Cruzain inh Det, COc1cc2[nH]c(=O)n(CCC(=O)N3CCN(c4cc(Cl)ccc4C)CC3)c(=O)c2cc1OC = -1.9%
2A StopGo, CCc1ccccc1NC(=O)Nc1ccc(F)cc1 = 12.0%
